Compound activity (PubChem BioAssay)
Hsc70 ATP site = small molecules displacing fluorescent ligand from Hsc70 – biochemical, fluorescence polarization, primary screen (AID 568); Hsc70 fluorescence polarization, probe displacement; higher % means a stronger effect; strong numbers were not always called active; displacement, % at 20 µM, or IC50 in µM where a hit was titrated; 83,000 tested, under 10 active;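 active means displacement above 50% without optical interference and an IC50 on retest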;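 further: ATPase domain with a fluorescein-tagged ATP probe; 0% = vehicle and 100% = excess ADP; read after one hour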
WNV NS2B-NS3 inh = blocks West Nile virus NS2B-NS3 protease activity; P06935; WNV NS2B-NS3 protease, fluorogenic substrate Ex360/Em465; hits give low values; z-score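 (tested at a level between 10 and 100 µM)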; 0.18% of 65,000 active; AID 577;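 active means z-score at -3 or under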;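 further: score is relative to mean and spread of the compound wells of a plate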
Target sequence (P06935 1371-1501 limits assumed): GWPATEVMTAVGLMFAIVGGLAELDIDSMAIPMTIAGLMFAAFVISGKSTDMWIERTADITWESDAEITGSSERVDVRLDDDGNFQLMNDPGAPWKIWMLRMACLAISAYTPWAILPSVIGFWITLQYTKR
Target sequence (P06935 1502-1679 limits assumed): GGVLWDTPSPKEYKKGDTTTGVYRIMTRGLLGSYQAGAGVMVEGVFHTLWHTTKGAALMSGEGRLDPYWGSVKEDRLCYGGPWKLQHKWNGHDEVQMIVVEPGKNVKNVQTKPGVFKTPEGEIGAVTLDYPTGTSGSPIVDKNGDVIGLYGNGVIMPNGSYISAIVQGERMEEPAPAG
MT1-MMP reporter = MT1-MMP gene expression reporter suppression – cell-based, luciferase reporter, luminescence (AID 618) | MT1-MMP promoter luciferase reporter cells, luminescence | calls from a first round at 10 µM; hits with a dose series show EC50 in µM | 0.62% of 87,000 active;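 active means over half of the reporter light lost at 10 µM or EC50 under 50 µM; inactive means the rest and hits that failed the dose series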;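 further: actives suppress MT1-MMP promoter-driven transcription so potencies describe inhibitors; HT1080 fibrosarcoma cells; overnight exposure; toxic or luciferase-blocking compounds were not removed from the actives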
Active calls of the source: *; i = inactive; . = not tested or not shown.

SMILES	Hsc70 ATP site	WNV NS2B-NS3 inh	MT1-MMP reporter
C/C(N)=C(/C#N)C(=O)CSc1nnc(-c2ccc(OC(F)F)cc2)o1	-8.4%	-0.29	i
CCNc1ccc(C(=O)OCC)cc1NC(=O)c1cc(S(=O)(=O)N2CCOCC2)ccc1C	-7.9%	0.06	i
O=C(c1ccco1)N1CCN(c2nc(C3CC3)nc3c2nnn3Cc2ccccc2Cl)CC1	-0.2%	.	i
CC(=O)OC1CC2(C)C(=O)CCC2C2CCc3cc(O)ccc3C12 (stereo unspecified)	2.8%	-0.73	i
CCCCOc1ccc(C(=O)NCc2ccccn2)cc1	-6.4%	-2.2	i
COc1ccc(OC)c(C2CC(=O)N3CN(c4ccccc4)CSC3=C2C#N)c1 (stereo unspecified)	5.1%	0.81	i
CCN(CC)CCCNC(=O)c1cn(CCOC)c(=O)c2c1c1ccccc1n2C	1.6%	0.37	i
COc1ccc(NC(=O)c2ccc(CN3CCN(c4ccccc4)CC3)cc2)cc1OC	1.8%	1.4	i
COC(=O)C1=C(C)N(C)C(C)=C(C(=O)OC)C1c1ccsc1	0.2%	0.21	i
CCn1c(SCC(=O)Nc2nc(-c3ccc(C)cc3)cs2)nnc1-c1ccccc1	0.1%	.	i
O=c1c2c3nc4ccccc4nc3n(-c3cccc(F)c3)c2ncn1Cc1ccc2c(c1)OCO2	1.7%	0.66	i
CC1=C2C(=O)OC(c3ccoc3)C2(C)CCC1 (stereo unspecified)	-7.4%	-1	i
O=C(NCCCn1ccnc1)c1cn(-c2ccccc2)nc1-c1ccc(F)cc1	-1.9%	-0.74	i
O=C(CCN1C(=O)c2ccccc2C1=O)N1CCN(Cc2ccc(Cl)cc2Cl)CC1	0.2%	-0.31	i
O=C(CN1C(=O)COc2ccccc21)NCCN1CCc2ccccc2C1	0.8%	-0.02	i
O=C(Cn1nc(Cc2cccnc2)c2ccccc2c1=O)Nc1ccc2c(c1)OCO2	-2.5%	-0.54	i
O=C(NCCc1ccc(Cl)cc1)C1CCN(C(=O)c2sccc2-n2cccc2)CC1	1.9%	0.18	i
CC(=O)Nc1nc(-c2cccs2)cs1	1.8%	-0.4	i
COCC(=O)Nc1nnc(SCC(=O)NCc2cccs2)s1	-2.1%	-0.07	i
C=CCc1ccccc1OCC(O)CN1CCN(Cc2ccc3c(c2)OCO3)CC1 (stereo unspecified)	-0.2%	-0.49	i

Filtered by structure: the entries above containing fluorine
SMILES	Hsc70 ATP site	WNV NS2B-NS3 inh	MT1-MMP reporter
C/C(N)=C(/C#N)C(=O)CSc1nnc(-c2ccc(OC(F)F)cc2)o1	-8.4%	-0.29	i
O=c1c2c3nc4ccccc4nc3n(-c3cccc(F)c3)c2ncn1Cc1ccc2c(c1)OCO2	1.7%	0.66	i
O=C(NCCCn1ccnc1)c1cn(-c2ccccc2)nc1-c1ccc(F)cc1	-1.9%	-0.74	i

Additional structures:
SMILES	Hsc70 ATP site	WNV NS2B-NS3 inh	MT1-MMP reporter
Cc1ccccc1OCc1nc(-c2ccccc2)no1	0.1%	-0.6	i
O=C(c1ccc2nc(-c3ccco3)c(-c3ccco3)nc2c1)N1CCN(c2ccccc2)CC1	6.3%	-0.4	i
Cc1cc(C)n2c(SCC(=O)N3CCN(S(=O)(=O)c4ccc(Cl)cc4)CC3)nnc2n1	-4.7%	-1.7	i
CCC(=O)N/C=C/n1cnc2cc(C(F)(F)F)ccc21	4.1%	-0.13	i
COc1cc(C2N3CC4(C)CN2CC(C)(C3)C4)ccc1O (stereo unspecified)	6.2%	-0.46	i
CN(C)S(=O)(=O)N1CCN(C(=O)N2CCCCCC2)CC1	6.0%	.	i
CCC1(C)Cc2c(sc3c2c2ncnn2c2nnc(SCC(=O)NCc4ccco4)n32)CO1 (stereo unspecified)	-3.4%	1.4	i
O=S(=O)(Cc1ccccc1)N1CCn2c(nc3ccccc32)C1	6.6%	-0.03	i
CCN(CC)S(=O)(=O)c1cccc(-c2nc3n(n2)Cc2ccccc2-3)c1	7.6%	0.32	i
CCCCOc1ccc(-c2nnc(-c3ccco3)o2)cc1	1.0%	0.43	i
COc1ccc(NC(=O)CSc2nc(-c3ccncc3)nn2CC(=O)N2CCCC2)cc1	-8.3%	1.6	i
COc1ccc(Br)cc1CN1CCN(C(=O)c2cccc(OC)c2OC)CC1	-3.4%	.	i
COc1ccc(OCC(O)CN2CCCCCC2)cc1 (stereo unspecified)	-1.1%	.	i
Cc1ccccc1NC(=O)Cc1nc(CSc2nnc(C3CCCCC3)n2N)cs1	3.2%	-1.3	i
CCCN(CCC)CCCNS(=O)(=O)c1cc(Br)cc2c1N(C(C)=O)CC2	-0.6%	-0.8	i
CC[C@H](C)[C@H](NS(=O)(=O)c1ccc(C)cc1)C(=O)N1CCC(C(=O)N[C@@H](C)C(=O)O)CC1	-1.9%	2.3	i
Cc1ccc(-n2c(=O)[nH]cc(C(=O)Nc3ccc4c(c3)OCO4)c2=O)cc1C	2.6%	1.3	i
Cc1nc(NC2=NCN(Cc3cccnc3)CN2)nc2ccccc12	-2.8%	0.0025	i
O=C(c1ccco1)N1CCCC(c2nc(-c3ccc(S(=O)(=O)NCc4ccccc4)cc3)no2)C1 (stereo unspecified)	-4.6%	-0.09	i
CCCCCn1c(CN2CCN(Cc3ccccc3)CC2)nc2c1c(=O)[nH]c(=O)n2C	2.0%	0.19	i
N#Cc1ccc(-c2ccco2)nc1SCc1ccccc1	-8.8%	1.5	i
O=C(c1cnc2n(c1=O)CCS2)N1CCN(c2ccc(Cl)c(Cl)c2)CC1	-2.0%	1.1	i
COc1ccc(OC)c(C2CC(=O)N3CN(c4ccc(C)c(Cl)c4)CSC3=C2C#N)c1 (stereo unspecified)	6.1%	1.1	i
CCOC(=O)N1CCN(C(=O)NC23CC4CC(CC(C4)C2)C3)CC1	1.8%	0.81	i
COc1ccc(/C=N/c2c(-c3ccc(OC)cc3)nc3n2CCS3)cc1	-1.8%	.	i
CC(C)(C)n1ncc2c(=O)n(CC(=O)OCc3ccccc3)cnc21	0.8%	1.1	i
CCC(=O)Nc1ccc(NC(=O)c2ccco2)c(OC)c1	1.2%	0.22	i
CCC(C)Nc1nc(OC(C(F)(F)F)C(F)(F)F)nc(OC(C(F)(F)F)C(F)(F)F)n1 (stereo unspecified)	-6.1%	.	i
O=S(=O)(NCc1ccco1)c1ccc(S(=O)(=O)N2CCCCC2)cc1	6.0%	.	i
COCCCn1c(-c2ccccc2Cl)n[nH]c1=S	-3.6%	0.47	i
O=C(CCN1C(=O)c2ccccc2C1=O)N1CCN(c2ccccn2)CC1	0.8%	0.92	i
O=C(OCCN(C1=NS(=O)(=O)c2ccccc21)c1ccc(Cl)cc1)c1ccco1	-0.7%	-0.24	i
CCn1c(CCNC(=O)c2cccs2)nnc1SCC(=O)Nc1nc(-c2ccccc2)cs1	0.7%	.	i
CCOC(=O)c1cc2occc2n1CCCN1C(=O)c2ccccc2C1=O	-4.8%	-0.49	i
CCOC(=O)N1CCN(S(=O)(=O)c2ccc(C(=O)Nc3ccc(F)cc3F)cc2)CC1	2.6%	-1	i
COCCn1c(C)cc(C(=O)COC(=O)c2ccc3ncsc3c2)c1C	3.2%	0.27	i
O=C(c1ccc(C(=O)N2CCOCC2)nc1)N1CCOCC1	-0.5%	-1.1	i
Cn1c(Cl)cnc1C(O)c1ccccc1 (stereo unspecified)	-2.9%	-0.07	i
CC1Cc2ccccc2N1C(=O)CN1C(=O)CN(C)C(=O)c2ccccc21 (stereo unspecified)	-4.8%	-1	i
O=c1c2c(-c3cccs3)csc2ncn1-c1ccccc1	6.3%	.	i
COC(=O)c1cn(C)c2ccc(S(=O)(=O)N3CC(C)CC(C)C3)cc2c1=O (stereo unspecified)	0.1%	-0.09	i
Cc1ccccc1-n1c(=O)cc(N2CCCCCC2)[nH]c1=O	4.1%	0.27	i
Cc1noc(COc2ccccc2OCC(N)=O)c1Cl	-0.1%	0.31	i
CC1(c2ccccc2)NC(=O)N(CC(=O)N2CCOCC2)C1=O (stereo unspecified)	-1.9%	0.38	i
CC12CN(C(=O)c3ccco3)CC(c3ccccc3)(CN(C(=O)c3ccco3)C1)C2=O	5.0%	-1.3	i
O=C(COc1cc(Cl)ccc1Cl)Nc1nnc(CC(=O)N2CCOCC2)s1	-2.7%	-0.41	i
CCn1c(SCC(=O)N2CCN(c3ccc(F)cc3)CC2)nnc1-c1ccncc1	8.4%	-0.14	i
COC(=O)CSc1nc2c(c(=O)n(C)c(=O)n2C)n1CCCc1ccccc1	0.0%	-0.73	i
COc1ccc(OC)c(S(=O)(=O)n2ccnc2C)c1	0.4%	.	i
COc1ccc(S(=O)(=O)Nc2cc(OC)c(NC(=O)c3ccco3)cc2OC)cc1	2.8%	1.1	i
O=C(CN1C(=O)c2ccccc2S1(=O)=O)N1CCN(c2ccccc2F)CC1	-7.7%	-0.53	i
COC(=O)C1CCN(C(=O)NC2CCCCC2)CC1	2.1%	0.77	i
O=C(Nc1ccc2c(c1)OCCO2)c1c(F)cccc1F	2.8%	-0.75	i
CCCCOC(=O)C1=C(C)Nc2ncnn2C1c1cccc(OC)c1OC (stereo unspecified)	-6.3%	-0.51	i
COc1ccc(-n2c(=O)cc(N3CCN(c4ccccc4F)CC3)[nH]c2=O)cc1	-0.7%	-0.5	i
CCN(CC)S(=O)(=O)N1CCC(C(=O)NC2CCCc3ccccc32)CC1 (stereo unspecified)	-1.0%	0.54	i
CC(=O)n1nc(-c2cccnc2)nc1N	-1.8%	-0.8	i
O=C(Nc1ccc(NC(=O)c2ccco2)nc1)c1ccccn1	-1.0%	-0.98	9µM*
CCOc1ccc(CNc2nc3ccccc3n2CCN2CCOCC2)cc1	5.3%	.	i
COc1ccc(Nc2nc(N)nc(CSc3n[nH]c(-c4ccccc4)n3)n2)cc1	10%	1.4	i

Part of the list above, with values under each structure.
Value order: Hsc70 ATP site	WNV NS2B-NS3 inh	MT1-MMP reporter
- O=C(c1ccco1)N1CCCC(c2nc(-c3ccc(S(=O)(=O)NCc4ccccc4)cc3)no2)C1 (stereo unspecified)
    -4.6%	-0.09	i
- CCCCCn1c(CN2CCN(Cc3ccccc3)CC2)nc2c1c(=O)[nH]c(=O)n2C
    2.0%	0.19	i

More compounds:
SMILES	Hsc70 ATP site	WNV NS2B-NS3 inh	MT1-MMP reporter
O=c1c2cnn(-c3ccccc3)c2ncn1Cc1ccco1	-3.1%	.	i
C[N+](C)(C)CCOP(=O)(O)OP(=O)([O-])OC[C@H]1O[C@@H](n2ccc(N)nc2=O)[C@H](O)[C@@H]1O	3.9%	.	i
CCCCCCc1cc2cc(C(N)=O)c(=N)oc2cc1O	143%	.	i
Cc1nc2nc[nH]n2c(=O)c1NC(=O)c1c(-c2ccccc2Cl)noc1C	-4.3%	1.9	i
COc1ccc(S(=O)(=O)N2CCCN(CC(=O)Nc3cc(NC(C)=O)ccc3OC)CC2)cc1	-6.3%	-0.93	i
O=C(NCc1ccccn1)c1cc2ccccn2n1	1.9%	-1.6	i
CC(C)c1nc(N2CCCC2)c(C#N)c2c1CCCC2	-8.1%	1.3	i
NC(=O)CC(O)c1cccc(Cl)c1 (stereo unspecified)	3.6%	1.4	i
CC1=C(C(=O)OC(C)C)C(c2cccs2)C2=C(CCCC2=O)N1 (stereo unspecified)	-0.5%	-0.85	i
O=C(COC(=O)COc1ccc(Cl)cc1)NC1CCCCC1	-3.1%	.	i
COc1ccc(Cl)cc1S(=O)(=O)N1CCN(C)CC1	-1.4%	0.54	i
N#CCCSCc1ccc(C(=O)O)o1	7.0%	-0.48	i
Cc1csc(SCC(=O)N2CCCC2)n1	-3.0%	-1.1	i
O=C1C2CCCN2C(c2ccccc2)N1c1ccc(Cl)cc1 (stereo unspecified)	-2.0%	1.5	i
O=C1Nc2cccnc2Sc2ccccc21	4.0%	-0.26	i
CC(C)Oc1ccc(C(=O)NC2CCCCC2)cc1	2.1%	.	i
COc1cc(OC)nc(NC(=O)COC(=O)C2CCCCC2)n1	1.0%	0.78	i
CCOC(=O)C1=C(C)NC(=O)NC1/C(C)=C/c1ccccc1 (stereo unspecified)	-0.2%	-0.43	i
COC(=O)c1ccc(C2CC(=O)Nc3cc(OC)c(OC)cc32)cc1 (stereo unspecified)	-3.0%	0.5	i
Cc1c(N(C(=O)Nc2ccccc2)C2=NCC(C)S2)c(=O)n(-c2ccccc2)n1C (stereo unspecified)	-2.8%	1.7	i
Cc1ccc(CNC(=O)c2ccccc2N)cc1	-2.2%	.	i
O=C(CSc1nnc(C2COc3ccccc3O2)o1)N1CCOCC1 (stereo unspecified)	1.2%	-0.89	i
COCCCn1nnnc1SCC(=O)Nc1nc(C)c(C)s1	-5.1%	-1	i
Cc1cc(C)cc(NC2=CC(=O)CC(c3ccco3)C2)c1 (stereo unspecified)	4.6%	.	i
O=C(CSCc1ccccc1)Nc1ccc2c(c1)OCO2	-4.6%	-0.03	i
Cn1c(SCC(=O)N(C2CCCCC2)C2CCCCC2)nnc1-c1cccs1	8.7%	-0.35	i
CCOC(=O)COc1nc(N(C)C)nc(N(C)C)n1	-4.2%	0.12	i
Cc1cc(C)c(NC2=CC(=O)CC(C)(C)C2)c(C#N)c1	3.9%	-0.23	i
C=CCn1c(NC(=O)c2ccccc2Cl)c(C#N)c2nc3ccccc3nc21	-21%	-1.3	i

Whole records from above. Values in the order: Hsc70 ATP site, WNV NS2B-NS3 inh, MT1-MMP reporter
Profile of `CCOC(=O)N1CCN(C(=O)NC23CC4CC(CC(C4)C2)C3)CC1` → 1.8%, 0.81, i
Profile of `CC(=O)n1nc(-c2cccnc2)nc1N` → -1.8%, -0.8, i

Compounds as they come; overall some 0.77% were active at least once.
